Biofilm kill mix: mixture kills Candida albicans biofilm cells; C. albicans biofilm persisters + clotrimazole, fluorescence viability; primary screen in compound mixtures of four per well; inhibition, % at 7.6 µM; hit rate 0.02% among 120,000; AID 1242;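 active means inhibition above 30.3% in the primary screen of four-compound pools, then above 30% when the compound was retested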;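 further: compounds exposed to preformed 24 h biofilms for 48 h; the number belongs to the whole pool; some results filed as inactive read as strong as hits; inactives centre near 12; 0% = biofilm with clotrimazole alone and 100% = kill control; retested singly at about 60 µM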
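Test system: C. albicans CAF4-2 wild-type biofilms; buffer or medium: RPMI/MOPS medium, pH 7.0; schedule: 24 h biofilm formation, then 48 h compound exposure, 37 °C; detection: Alamar Blue fluorescence; measure: percent inhibition of biofilm viability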
Starred values were filed as active, the others as inactive. These rows are one share of the data; rates above refer to the full screens.

SMILES	Biofilm kill mix
COC(=O)c1c(-c2ccc(F)cc2)csc1NC(=O)C1CCCO1 (centres undefined)	5.2
COc1cccc(-c2nnc3sc(-c4ccccc4)nn23)c1	-3.0
COc1ccc2cc1Oc1ccc(cc1)C[C@H]1c3c(cc4c(c3Oc3cc5c(cc3OC)CCN(C)[C@@H]5C2)OCO4)CCN1C	14.0
CCOC(=O)C1=C(CC)Nc2ccccc2N/C1=N\S(=O)(=O)c1cc(Br)ccc1Br	7.0
COc1ccc(-c2nn(-c3ccccc3)cc2/C=N/Nc2ccccn2)cc1OC	9.9
NC(=O)C1(N2CCCCC2)CCN(S(=O)(=O)c2cc(Cl)sc2Cl)CC1	14.3
CCCN1CCN(C(=O)c2ccccc2-c2nc3ccccc3s2)CC1	17.0
C=CCNS(=O)(=O)c1ccc(N2C(=O)c3ccccc3C2=O)cc1	17.1
O=C(O)COCC(=O)Nc1ccc(-n2nc(C(F)(F)F)cc2-c2cccs2)cc1	20.7
CCC(C)c1ccc(NC(=S)NCCn2cc(Cl)cn2)cc1 (centres undefined)	-0.7
COCCCNC(=O)COC(=O)c1ccc(-c2nc3ccccc3s2)s1	14.9
O=C(CCCC(=O)N/N=C/c1ccccc1C(=O)O)N/N=C/c1ccccc1C(=O)O	27.2
CCC(C)NC(=O)COC(=O)c1csc2c1CCCC2 (centres undefined)	10.1
CC(=O)Nc1ccc(S(=O)(=O)N=S(C)(C)=O)cc1	12.5
CCc1nc(Nc2ccc(OC)c(OC)c2)c2nnn(Cc3ccccc3Cl)c2n1	16.2

Reprinted from the part before: 2 compounds, then new ones.
SMILES	Biofilm kill mix
CC(=O)Nc1ccc(S(=O)(=O)N=S(C)(C)=O)cc1	12.5
CCc1nc(Nc2ccc(OC)c(OC)c2)c2nnn(Cc3ccccc3Cl)c2n1	16.2
CC(C)c1csc2nc3n(c(=O)c12)CCCCC3	14.2
C/C(=N\NC(=O)c1cccnc1)c1cc(C)oc1C	4.5
CCCCC1=CC2=CC(=O)C(C)(OC(=O)CC)C(=O)C2=CN1CCOC (centres undefined)	9.2
O=C(COc1ccc(Cl)cc1)Nc1c(-c2cccs2)nc2ccccn12	16.7
O=C(CCl)Nc1cc(SCC(O)CO)cc([N+](=O)[O-])c1 (centres undefined)	-12.5
Cc1nnc(SCC(=O)Nc2cccc(S(=O)(=O)NC3=NCCCCC3)c2)n1Cc1ccccc1	9.2
O=c1cc(N2CCc3ccccc32)[nH]c(=O)n1-c1ccccc1Cl	22.1
C=CCN(c1ccccc1C(=O)O)S(=O)(=O)c1ccc(C)cc1	15.0
CCCCCC1CCC(c2nnc(SCC(C)=O)o2)CC1 (centres undefined)	11.5
CCn1cc(CNC(=O)CSc2nc(-c3ccc(OC)c(OC)c3)cc(C(F)(F)F)n2)c(C)n1	16.6
CC(C)Oc1cccc(C(=O)N2CCCC2)c1	9.3
NS(=O)(=O)c1ccc(Sc2ccccn2)c([N+](=O)[O-])c1	15.7
COc1ccc(/C=N\NC(=O)c2ccc(Cn3cc(Br)c([N+](=O)[O-])n3)o2)c(OC)c1C	-13.7
COCCNC(=O)c1cc2nc(-c3ccccc3)cc(C)n2n1	28.7
O=C(NN1CCN(Cc2ccccc2)CC1)c1ccc(Cl)cc1	-0.3

Four entries picked at random from those above, as already listed:
SMILES	Biofilm kill mix
CC(C)Oc1cccc(C(=O)N2CCCC2)c1	9.3
C/C(=N\NC(=O)c1cccnc1)c1cc(C)oc1C	4.5
COCCNC(=O)c1cc2nc(-c3ccccc3)cc(C)n2n1	28.7
CCCCCC1CCC(c2nnc(SCC(C)=O)o2)CC1 (centres undefined)	11.5

(list continues)
SMILES	Biofilm kill mix
CCOc1ccc2c(CC)cc(=O)oc2c1OCC	9.5
O=C(Nc1ccc(OC(F)(F)F)cc1)Nc1cccc([N+](=O)[O-])c1	8.8
Cc1ccc(S(=O)(=O)N2CCC(C(=O)NNC(=O)c3ccncc3)CC2)cc1	6.8
COC(=O)CSC1=C(C#N)C(c2sccc2C)CC(=O)N1 (centres undefined)	9.4
COc1ccccc1N=C1SCC(=O)N1c1ccccc1OC	12.9
OC(c1cc(-c2ccc(Cl)cc2)nc2ccccc12)C1CCCCN1 (centres undefined)	17.4
CN(CCOc1ccccc1)C(=O)c1ccc(OC2CCN(C(=O)C3CC3)CC2)cc1	4.4
CCOC(=O)c1oc2ccccc2c1CN1CCN(C)CC1	10.1
O=C(NNC(=S)NCC1CCCO1)c1cccc(S(=O)(=O)N2CCOCC2)c1 (centres undefined)	-0.2
Cc1nn(-c2ccccc2)nc1CNC(=O)CC(C)(C)C	17.6
N/C(Cn1cncn1)=N\OC(=O)c1ccc(Cl)cc1Cl	12.6
COc1ccc([C@H]2[C@@H](C#N)[C@H](C#N)N3CCCN23)cc1	17.7
CC(C)(C)c1ccc(C(=O)N2CCN(CCNC(=O)C(=O)NCc3ccccc3)CC2)cc1	19.4
Cc1nc2cc(Cl)c([N+](=O)[O-])cc2s1	3.6
COc1nccc(-c2ccc(F)cc2)c1C#N	19.2
CSc1nnc(CCCCCNC(=O)OC(C)(C)C)o1	-0.5
COC(=O)c1c(C)[nH]c(C=Nc2ccc(OC)cc2)c1C	-0.2
Cn1c(=O)c2c(O)c(Cc3ccccc3)c(=O)[nH]c2n(C)c1=O	19.6
Cc1nc2cc(NC(=O)Nc3cccc(F)c3)ccc2n1C	22.6
O=C(CN1C(=O)/C(=C/c2ccccc2F)Sc2ccccc21)N1CCN(c2ccccn2)CC1	17.6
Cn1cnnc1SCC(=O)Nc1ccc(Cl)c(S(=O)(=O)N2CCOCC2)c1	-6.9
CSc1ccc(C#N)cc1NC(=O)c1ccccc1C	13.6
CC(=O)c1ccc(NC(=S)N2c3ccccc3CC2C)cc1 (centres undefined)	9.7
Cc1ccc(C)c(N2CCN(c3cnn(-c4nc5ccccc5s4)c(=O)c3Cl)CC2)c1	2.0
COc1ccccc1-n1c(=O)c(C#N)c(-c2ccc([N+](=O)[O-])cc2)c2cc(C(=O)c3ccccc3O)cnc21	15.7
c1csc(COc2ccccc2CNC2CCCCC2)c1	34.5
Oc1cccc(C(Nc2nccs2)c2ccc3cccnc3c2O)c1 (centres undefined)	10.9
O=C(COC(=O)C1CC(O)CN1S(=O)(=O)c1ccc(Cl)cc1)c1ccccc1Cl (centres undefined)	10.7
O=S(=O)(c1cccc(NC(=S)N2CCN(c3cccc(Cl)c3)CC2)c1)C(F)F	5.8
CC1(C)NC(=O)N(CC(=O)OCc2cc(=O)n3cc(Br)ccc3n2)C1=O	-11.5
CCCC1=C(C(=O)OCC)C(c2sccc2C)n2ncnc2N1 (centres undefined)	-2.1
C/C(=N\N(c1ccccc1)c1ccccc1)c1ccco1	2.8
O=C(Nc1nc(SCc2ccc(F)cc2)ns1)c1ccco1	10.7
CCOC(=O)C(=O)Nc1nccs1	15.7
O=[N+]([O-])c1ccn(-c2nc(-c3cccs3)cc(C(F)(F)F)n2)n1	13.2
CCN(CC)C(=O)CC(c1ccc(N(C)C)cc1)c1c(OC)cc(OC)c2c(-c3ccccc3)cc(=O)oc12 (centres undefined)	15.4
CC(NC(=O)c1ccc(Br)cc1)C(=O)NC1=NCCS1 (centres undefined)	5.6
CCc1c(C)nc2c(OC)cccc2c1Cl	10.1
COc1ccc(CCNc2ccc(C(=O)O)cc2[N+](=O)[O-])cc1OC	22.7
CC(=O)Nc1ccc(NC(=O)c2ccc(Cl)nc2)cc1	11.6
O=S(=O)(NCc1ccccc1)NCc1ccccc1F	7.5
NNC(=O)[C@H](Cc1ccccc1)NC(=O)Nc1ccc2c(c1)OCCO2	2.7
CCOc1ccc(C(=O)NC(=S)Nc2ccc(N3CCCCC3)cc2)cc1[N+](=O)[O-]	9.3
COc1ccc(/C=N/NC(=O)CCn2nnc3ccccc32)cc1	19.9
COc1ccc(/C=C/C(=O)c2cc(F)ccc2OC(=O)c2ccccc2OC)cc1OC	19.4
Oc1ccccc1C(=S)N1CCN(c2cccc(Cl)c2)CC1	11.8
COc1cccc(-c2nnn(CCc3nn[nH]n3)n2)c1	8.1
COc1ccc(CSCC(=O)Nc2ccccc2SC)cc1	0.0
CN1C(c2ccc(F)cc2)=CS/C1=C(/C#N)c1nnc(N2CCOCC2)n1-c1ccccc1	7.8
N/C(Cc1cccc2ccccc12)=N\OC(=O)c1ccc2c(c1)OCO2	0.4
Cc1ccc(C(=O)N2CCN(c3ncnc4c(C)csc34)CC2)cc1	19.9
O=C(O)/C=C/c1ccc2c(c1)OCCO2	7.8
COC(=O)C1=COC(C)C2CN3CCc4c([nH]c5cc(OC)c(OC)cc45)C3CC12 (centres undefined)	20.6
COc1ccc(-n2c(SCC(=O)Nc3cc(C)on3)nc3c([nH]c4ccccc43)c2=O)cc1	14.0
Cc1nc(OCC(C)C)c2sc3nc4c(cc3c2n1)COC(C)(C)C4	29.9
O=C(N/N=C/C1CC=CCC1)c1cc(-c2cccnc2)nc2ccccc12 (centres undefined)	0.4
CCOC(=O)C1(Cc2ccc(OC)cc2)CCN(C(=O)CCn2ccc(C)n2)CC1	7.7
S=c1[nH]nc(Cc2ccc(Cl)cc2)o1	18.8
Cc1cc(SC(C)C(=O)O)nc2ccccc12 (centres undefined)	19.8
CCOC(=O)Nc1ccc2c(c1)N(C(=O)OCCN(C)C)c1ccccc1CC2	0.7

An excerpt from above in order of length of the SMILES, descending.
SMILES	Biofilm kill mix
C=CCN(c1ccccc1C(=O)O)S(=O)(=O)c1ccc(C)cc1	15.0
Oc1ccccc1C(=S)N1CCN(c2cccc(Cl)c2)CC1	11.8
CCOc1ccc2c(CC)cc(=O)oc2c1OCC	9.5

The results go on:
SMILES	Biofilm kill mix
COC(=O)C(NC(=O)C(C)NC(=O)OCc1ccccc1)C(C)C (centres undefined)	17.4
Cc1onc(-c2c(Cl)cccc2Cl)c1C(=O)N=C(N)N1CCOCC1	20.4
Cc1onc(-c2ccccc2)c1C(=O)Nc1ccc(S(=O)(=O)Nc2nccs2)cc1	18.8
CCOc1cc(/C=N/NC(=O)CN2CCOCC2)ccc1OCc1ccccc1	14.3
O=C(NCCN1CCOCC1)c1cc2cc([N+](=O)[O-])ccc2s1	9.3
CCSc1ncnc2c1sc1nc3c(cc12)COC(C)(C)C3	4.6
COc1ccccc1NC(=O)Nc1nnc(C(C)C)s1	6.8
N#CCC(=O)N/N=C/c1cccc(Oc2ccccc2)c1	2.9
O=C(O)CCC(=O)N1CCN(c2ncccc2C(F)(F)F)CC1	20.2
NC(=O)C1=C[C@@H](c2ccc(Br)cc2)C[C@@H](OCCCCO)O1	-1.5
Cc1nnc(SCC(=O)N(C)c2c(N)n(Cc3ccccc3)c(=O)[nH]c2=O)n1Cc1ccccc1	9.2
COc1ccccc1CNC(=O)c1cn(C)c2ccc(S(=O)(=O)N3CCCCC3)cc2c1=O	3.0
COC(=O)c1ccc(CN2CCCC(CCC(=O)NCc3ccc(C)o3)C2)cc1 (centres undefined)	5.3
COc1ccc(NC(=O)CC2CC3CCC2C3)cn1 (centres undefined)	-14.3
COc1cc(NC(=O)c2cccc(COCC(F)(F)C(F)F)c2)cc(OC)c1OC	8.8
Nc1nnc(SCC(=O)OCC(=O)c2ccccc2Br)s1	5.8
Cc1ccc(/C=C2\SC(=S)N(C(Cc3ccccc3)C(=O)O)C2=O)cc1 (centres undefined)	12.2
COc1ccc(-n2c(SCC(=O)Nc3sc4c(c3C#N)CCCC4)nnc2-c2ccccc2OC)cc1	9.9
CC(=O)c1cccc(NC(=O)COC(=O)COc2ccccc2C)c1	29.9
COC(=O)c1c(C)nn(-c2ccccc2)c1N	-0.9
CCOC(=O)c1c(C)c(/C=N/Nc2ccccc2)n(C)c1C	11.7
CC(C)CC(NC(=O)c1cccs1)c1nnc(SCc2ccc(Cl)c(Cl)c2)n1C (centres undefined)	13.6
c1ccc(C2=NN(c3ccccc3)CC2)cc1	18.3
Cn1nc(-c2ccccc2)cc1NC(=O)C1CCCCC1	5.1
CC1CCN(C(=S)SCc2nc(N)nc(Nc3ccccc3)n2)CC1	19.8
CCCCCCCCn1c(=O)c(C(=O)OC)c(N)c2ccccc21	7.1
O=C(NNC(=S)NC(=O)c1ccccc1[N+](=O)[O-])c1ccccc1O	12.7
COc1ccc(C2Nc3ccccc3C(=O)N2C2CCCCC2)cc1 (centres undefined)	3.9
Cc1ccc(S(C)(=O)=O)cc1S(=O)(=O)Nc1cccc(Cl)c1	12.7
Cc1ccc2[nH]c(=O)c(CN(CC3COCCO3)C(=O)Nc3ccccc3F)cc2c1 (centres undefined)	-1.3
CN(CCC1CCOCC1)C(=O)CC1C(=O)NCCN1CC1CCCCC1 (centres undefined)	12.6
CCOP(=O)(OCC)C(Nc1ccc(C)cc1)c1ccco1 (centres undefined)	13.8
COCCNC(=O)CCc1c(C)nc2nc(-c3cc(OC)cc(OC)c3)nn2c1C	8.1
COc1ccccc1NS(=O)(=O)c1ccc(Cl)c(NC(=S)NC(=O)C2CCCC2)c1	3.0
O=S(=O)(NCCc1ccccc1)c1ccccc1	3.8
OCCC1CN(Cc2ccccc2-c2ccco2)CCN1Cc1ccsc1 (centres undefined)	-2.2
Cc1cc(SCC(=O)c2cc(C)n(C)c2C)nc2ccccc12	16.6
C/C(=N/NC(=O)CNC(=O)C1COc2ccccc2O1)c1cccc(O)c1 (centres undefined)	10.9
Cc1ccc(CN2CCN(/N=C/c3ccco3)CC2)c(C)c1	9.7
Cc1c(Br)c([N+](=O)[O-])nn1CCCC(=O)Nc1sc2c(c1C#N)CCC2	15.8
Nc1nc(NC(=O)c2ccco2)nn1-c1ccccc1	9.5

High-throughput results (PubChem)
